Screening results as filed in PubChem BioAssay.
Beta apoptosis: blocks beta cell apoptosis; AID 435005; 0.8% of 300,000 active; protection from apoptosis, % (concentration not given with the values); INS-1E cytokine-induced death, ATP luminescence, 48 h; percent of positive-control rescue, neutral wells zero;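 active means all replicates at 75% or more, or half of them and the mean; inconclusive means half reach 75% but not the mean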;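 further: 0% = cytokine-treated negative control wells and 100% = positive control rescue; higher means more ATP so stronger rescue from cytokine killing; wells of about 40 µL received 100 nL stock; the first replicate is given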
Calb FLC: affects C. albicans growth with fluconazole; 0.57% of 300,000 active; C. albicans CaCi-2 (fluconazole-resistant clinical isolate) + fluconazole, Alamar Blue growth, 48 h; growth inhibition, % (no concentration beside the values);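 active means most replicates above 75%; inconclusive means exactly half above 75%; inactive means most below 75%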;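 further: all wells also contain fluconazole at 8 µg/ml as a sub-toxic cotreatment; 0% = median of DMSO wells and 100% = median of geldanamycin control wells; wells of about 8 µL received 7.5 nL stock; the first replicate is given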
LANA-H2B inh: blocks KSHV LANA binding to histone H2A/H2B; Q9QR71; cell-free LANA-H2A/H2B peptide, fluorescence polarization; inhibition, % (test concentration not listed); 0.6% of 320,000 active; in the data active means inhibition mostly above about 10%, no sharp cut-off; inactive means mostly below about 6.7%;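 further: stock transfer was 7.5 nL into about 10 µL; 0% = median of vehicle wells and 100% = median of positive control wells; one replicate is shown; the record names a cut of 25% in any replicate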
RanGTP-Impb inh: disruptors of Ran-importin-beta complex formation – biochemical, FRET, CFP-Ran, YFP-importin-beta, homogeneous, primary screen. AID 2216. cell-free CFP-Ran/YFP-importin-beta FRET ratio. inhibition, % (no concentration beside the values). 1.1% of 300,000 active;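 active means most replicates above 15%; inconclusive means exactly half above 15%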;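 further: 0% = DMSO wells and 100% = Ran loaded with GDP instead of GTP; wells of about 40 µL received 100 nL stock; the first replicate is given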
B2AR ag: human beta-2 adrenergic receptor agonism by FAP | P07550 | Am2.2-beta2AR cells, FAP receptor internalization, flow cytometry; reference of the scale not given here | response, % (test concentration not listed) | 0.43% of 340,000 active | AID 504454;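 active means response above a set limit, near 3 SD of response in nonfluorescent compounds, cut at about 42% in these data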;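 further: stock transfer was 100 nL into about 11 µL; a reference agonist was the positive control; negative values mostly stem from fluorescent compounds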
Target sequence (P07550 whole entry, looked up): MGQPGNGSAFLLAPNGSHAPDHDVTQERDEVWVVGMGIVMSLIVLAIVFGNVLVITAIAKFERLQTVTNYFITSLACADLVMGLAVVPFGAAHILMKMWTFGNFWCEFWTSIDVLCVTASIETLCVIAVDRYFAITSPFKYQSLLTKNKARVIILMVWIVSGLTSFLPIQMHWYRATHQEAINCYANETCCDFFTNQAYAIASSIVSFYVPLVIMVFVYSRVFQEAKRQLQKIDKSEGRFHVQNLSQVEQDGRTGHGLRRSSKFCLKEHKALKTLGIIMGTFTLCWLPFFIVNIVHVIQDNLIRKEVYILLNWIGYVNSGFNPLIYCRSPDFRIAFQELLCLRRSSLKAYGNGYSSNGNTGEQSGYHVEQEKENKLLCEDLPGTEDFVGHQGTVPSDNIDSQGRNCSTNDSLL
UCH37 inh: inhibitors of human deubiquitinating enzyme UCH37. purified proteasome/UCH37, Ub-AMC cleavage fluorescence. inhibition, % (test concentration not listed). 0.33% of 330,000 active;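 active means mean of two replicates above 20%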;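 further: 0% = compound-free wells with enzyme and 100% = wells lacking proteasome; stock transfer was 100 nL into about 20 µL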
Target sequence (Q9Y5K5 whole entry, looked up): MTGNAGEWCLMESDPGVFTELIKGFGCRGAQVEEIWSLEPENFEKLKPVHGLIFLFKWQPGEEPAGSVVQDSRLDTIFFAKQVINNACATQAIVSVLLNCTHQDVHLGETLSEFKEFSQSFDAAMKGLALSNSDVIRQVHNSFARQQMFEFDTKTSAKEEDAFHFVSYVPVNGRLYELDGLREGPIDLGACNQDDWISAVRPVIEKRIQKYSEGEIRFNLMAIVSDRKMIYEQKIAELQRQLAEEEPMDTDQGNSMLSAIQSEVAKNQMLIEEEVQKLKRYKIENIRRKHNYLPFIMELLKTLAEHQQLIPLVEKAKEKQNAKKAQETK
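Material: Human UCH37 enzyme supplied as purified proteasome complex | Schedule: 30 min compound-proteasome preincubation then 25 min substrate reaction, room temperature | Detection: AMC fluorescence from Ub-AMC cleavage, excitation 355 nm, emission 460 nm | Benchmarks: Wells without proteasome as full block, compound-free enzyme plus substrate as uninhibited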
Bfl-1 A1 inh: inhibitors of the anti-apoptotic protein A1, read as caspase activation | MEF A1-2A-BIM cells, Caspase-Glo 3/7 luminescence, 3 h; percent of clofoctol response, vehicle zero | caspase activation, % (no concentration beside the values) | 0.066% of 330,000 active | AID 2462;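 active means over half of replicate activation scores above 10%, or exactly half above 10 with the replicate mean above 10; inconclusive means replicate mean below 10 yet half the replicates above 10; inactive means over half of replicates below 10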;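 further: wells of about 30 µL received 50 nL stock; many hits fall short of the cut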
T cruzi inh: T. cruzi replication inhibition; T. cruzi beta-gal in NIH3T3, luminescence, 90 h; 1.4% of 300,000 active; inhibition, % (test concentration not listed);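 active means mean inhibition across valid replicates above about 55%, limit read from the data; inconclusive means mean below that limit but half or more replicates reach it; inactive means mean below it, under half of replicates reach it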;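 further: signal also drops with host cell toxicity which is not excluded here; 0% = plate median of DMSO wells and 100% = zero luminescence signal; higher percent means less beta-gal luminescence so fewer parasites; stock transfer was 50 nL into about 50 µL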
Active calls of the source: *; ? = inconclusive; nt = no result given.

SMILES | Beta apoptosis | Calb FLC | LANA-H2B inh | RanGTP-Impb inh | B2AR ag | UCH37 inh | Bfl-1 A1 inh | T cruzi inh
Cc1c(N=Nc2ccc(O)cc2)c(=O)n(-c2ccccc2)n1C | 3 | 1 | -1.3 | 0.5 | -4 | 2.8 | 0.5 | -1
COc1ccccc1N(C)S(=O)(=O)c1ccc(C(=O)NC(C)(C)C)cc1 | 2 | -7 | 1.8 | -1.5 | 2 | 2.1 | -0.2 | 12
CCOc1ccc(CNC(=O)c2ccc(NC(=O)C3=CSCCO3)cc2)cc1 | nt | -2 | -0.8 | 0.3 | 105* | 1.3 | -0.9 | -10
COc1ccc(C(C)=O)cc1Cn1nc(C)c([N+](=O)[O-])c1C | -4 | 20 | 6.5 | ? | -2 | 5.3 | 0.8 | 3
CNc1nc(-c2ccc3c(c2)CCN3C(=O)c2ccccc2F)cs1 | nt | 4 | nt | 0.6 | 4 | 2.4 | nt | 13
CCC(Cc1ccccc1)NC(=O)CN1C(=O)CSc2ncccc21 (stereo not given) | nt | -3 | 1.6 | -3.0 | 2 | 4.7 | 0.4 | -13
CC(=O)Nc1nc(C)c(-c2nc3ccc([N+](=O)[O-])cc3[nH]2)s1 | 5 | 1 | 3.5 | 1.0 | 13 | 5.2 | -1.1 | -10
O=C(COc1ccc(Cl)cc1)Nc1ccc2oc(=O)ccc2c1 | -1 | 1 | -3.1 | -0.9 | 1 | -14 | -0.1 | -4
CC(C)C(=O)Nc1cccc(NC(=S)NC(=O)c2cccs2)c1 | 5 | -2 | -0.9 | -5.9 | -9 | 4.4 | 0.1 | -11
CC1(c2ccccc2)NC(=O)N(CC(=O)NC(=O)NC2CCCC2)C1=O (stereo not given) | nt | 13 | -5.1 | -4.0 | -3 | 4.5 | 0.0 | 4
COc1cccc(/C=C/C(=O)OCC(=O)Nc2ccc(Cl)c(S(=O)(=O)N(C)C)c2)c1OC | -7 | 5 | 1.0 | 5.4 | 0 | -11 | 0.3 | -9
Cn1c(=O)cc(OCC(=O)NC2CCCCC2)c2ccccc21 | -1 | -11 | 1.1 | 2.9 | -10 | 1.2 | 0.4 | 11
Cc1n(CC(O)COC2CCCCC2)c2ccccc2[n+]1C (stereo not given) | -8 | 8 | -0.4 | 1.3 | 0 | 1.3 | 1.4 | -17
O=C(COC(=O)CCCN=C1NS(=O)(=O)c2ccccc21)NNC(=O)c1ccccc1 | -5 | -11 | 9.5 | 1.7 | 10 | 3.3 | 0.3 | -6
CCC(Sc1nc2ccncc2[nH]1)C(=O)Nc1ccc(C)c(Cl)c1 (stereo not given) | 0 | 27 | -3.5 | -0.2 | 0 | 6.5 | 0.0 | 62*
COc1ccc(-c2cc3nc(C)c(CCC(=O)N4CCN(c5ccccn5)CC4)c(C)n3n2)c(OC)c1 | 3 | 14 | -0.4 | 4.2 | -4 | -84 | 0.4 | 32
O=C(c1cccc(S(=O)(=O)N2CCOCC2)c1)N1CCN(c2ccc(F)cc2)CC1 | -3 | -10 | 0.3 | 2.0 | 21 | 5.2 | -0.9 | 0
N#Cc1c(N2C(=O)Nc3ccccc3N2O)sc2c1CCCC2 | -1 | -19 | 1.6 | 0.6 | 2 | 4.7 | 0.0 | -8
CC(C)OCCCNC(=O)c1cn(C)c2ccc(S(=O)(=O)N3CCCC3)cc2c1=O | 2 | -13 | 0.7 | 0.0 | 9 | 5.9 | 0.7 | -2
CCN(CCNC(=O)c1cccc(N2CCCC2=O)c1)c1ccccc1 | -11 | nt | 5.0 | 2.5 | -8 | 0.1 | 0.5 | -6
COc1ccccc1C(=O)NC(=S)Nc1ccc(N2CCCC2)cc1 | 27 | -1 | -0.3 | 20* | -1 | 3.4 | -1.2 | 56*
COC(=O)Cc1[nH]nc2c1C(c1cccc(OC)c1OC)C(C#N)=C(N)O2 (stereo not given) | -1 | -16 | -3.3 | 2.3 | 3 | 4.1 | -0.1 | -17
COc1c(Br)cc(Br)cc1/C=N/NC(=O)c1cccnc1 | 8 | -4 | 0.5 | -2.8 | -8 | nt | 2.5 | -11
CC1=C(C(=O)OCc2ccccc2)C(c2ccco2)C2=C(CC(C)(C)CC2=O)N1 (stereo not given) | 14 | -2 | -1.9 | -2.6 | -3 | -35 | -0.8 | nt
COc1ccc(C)cc1NC(=O)CN1CCN(c2ccc(F)cc2)CC1 | 0 | 18 | 4.8 | 4.1 | 2 | -5.7 | -0.5 | 14
(cont.)
SMILES | Beta apoptosis | Calb FLC | LANA-H2B inh | RanGTP-Impb inh | B2AR ag | UCH37 inh | Bfl-1 A1 inh | T cruzi inh
CCCCn1c2c(c(=O)n(C)c1=O)C(CC(=O)OCC(=O)Nc1cccc(C(F)(F)F)c1)C(=O)N2 (stereo not given) | 2 | 6 | -1.5 | 1.0 | 11 | 3.3 | -0.3 | -5
COc1ccc(OCC(=O)N2CCC(Cc3ccccc3)CC2)cc1 | -4 | 12 | 3.3 | -2.4 | 5 | -1.7 | -0.1 | 12
COC(=O)CSc1nc(NC(C)(C)C)nc(N(C)C)n1 | 0 | -2 | 2.0 | -6.6 | -1 | 1.3 | -0.5 | 20
Cc1ccccc1NC(=O)C1c2cccc[n+]2CC(=O)N1c1c(C)cccc1C (stereo not given) | -3 | -12 | -2.7 | 1.3 | -20 | -1.1 | -0.4 | -2
CC1(C)CC(=O)/C(=C(/O)Cc2ccccc2)C(=NCCc2ccccc2)C1 | 7 | -7 | -0.4 | -0.1 | -4 | nt | 0.6 | 19
Cc1ccc(S(=O)(=O)c2c(C)cc(C)nc2N2CCCC2)cc1 | 1 | 2 | -8.1 | 0.7 | 0 | 2.7 | -0.8 | -3
CC(C)N1CC2=C(C1=O)C(c1ccc(O)cc1)NC(=O)N2C (stereo not given) | 0 | -5 | -2.6 | -1.2 | -10 | 2.0 | 0.0 | 0
COc1cccc(N(CC(=O)NC(C)(C)C)C(=O)C2CSC(=O)C2)c1 (stereo not given) | -3 | -27 | 0.8 | -0.9 | -1 | 3.5 | -0.5 | 10
Cc1ccc(OCC(=O)NCCC2=CCCCC2)cc1 | -2 | -16 | -1.5 | 1.2 | -4 | 3.1 | 0.0 | 9
Cc1cccc(Nc2ncnc3c2cnn3C)c1 | 0 | 11 | -5.7 | 2.7 | -2 | -0.3 | 1.2 | -15
CCCCn1c(N)c(N(CC)C(=O)c2ccco2)c(=O)[nH]c1=O | -3 | nt | -4.7 | nt | -7 | 2.7 | 0.4 | nt
CCCC(c1nnnn1Cc1ccc2c(c1)OCO2)N1CCC(C(N)=O)CC1 (stereo not given) | -5 | 11 | 2.4 | 1.0 | 6 | 2.9 | 0.3 | -4
Cc1cc(C(F)(F)F)cc(NNC(=O)NC(=O)c2c(F)cccc2Cl)n1 | -4 | 9 | -8.5 | 6.0 | 1 | 0.8 | 0.6 | 5
Nc1ccc2nc(CCCO)[nH]c2c1 | -1 | 10 | -15 | 2.5 | 7 | 5.3 | 0.2 | -8
CCOC(=O)C(C)n1cnc2c(nnn2-c2cccc(Cl)c2)c1=O (stereo not given) | 1 | -2 | 3.1 | -2.2 | 5 | 1.8 | 0.0 | -1
COc1ccc(C)cc1NC(=O)C(Sc1nnc(-c2cccs2)o1)c1ccccc1 (stereo not given) | 1 | -13 | 4.1 | -3.4 | -6 | 5.2 | -1.0 | 13
CC(C)(C)c1ccc(S(=O)(=O)NCc2ccccn2)cc1 | nt | 25 | 4.8 | -0.6 | -4 | -2.4 | 0.6 | -16
CN(c1c[nH]c(=O)[nH]c1=O)C1CCCCC1 | 0 | -2 | 1.8 | ? | 8 | nt | 0.1 | -4
O=C(Nc1cccc2c1CCCC2)C1CCN(c2nnnn2-c2ccccc2)CC1 | 4 | -23 | -1.7 | 0.1 | 2 | -1.8 | 1.0 | 0
COc1ccc2cc(-c3ccon3)ccc2c1 | nt | -6 | -4.2 | -3.6 | 1 | -5.6 | -1.1 | -11
Nc1nonc1-c1nc2ccccc2n1CC(=O)N/N=C/c1ccc(-c2cccc(C(=O)O)c2)o1 | nt | -5 | nt | 0.4 | 2 | nt | nt | -9
Cc1cc(-c2nnc(CCC(=O)N(CC3CC3)CC3CCCO3)o2)no1 (stereo not given) | -7 | 32 | -6.5 | -1.2 | 11 | 4.0 | -0.3 | 5
CC1(C)COC2(OC1)C(=O)Nc1ccccc12 | -4 | -9 | 1.2 | -4.2 | 1 | 2.1 | 0.9 | -22
COc1ccc(N(CC(=O)N2CCN(C)CC2)S(=O)(=O)c2ccccc2)cc1OC | -6 | -2 | -2.0 | -0.6 | 9 | 1.5 | 0.1 | -12
O=C(Oc1cccc2cccnc12)c1cccc(N2C(=O)C3C4CCC(C4)C3C2=O)c1 (stereo not given) | 79* | 0 | 2.1 | -2.7 | nt | 1.3 | 0.3 | 6

Sorted by value in B2AR ag (descending): six from the list above
canonical_smiles | B2AR ag
CCCC(c1nnnn1Cc1ccc2c(c1)OCO2)N1CCC(C(N)=O)CC1 (stereo not given) | 6
CCOC(=O)C(C)n1cnc2c(nnn2-c2cccc(Cl)c2)c1=O (stereo not given) | 5
COc1ccc2cc(-c3ccon3)ccc2c1 | 1
Cc1cccc(Nc2ncnc3c2cnn3C)c1 | -2
CCCCn1c(N)c(N(CC)C(=O)c2ccco2)c(=O)[nH]c1=O | -7
Cc1ccccc1NC(=O)C1c2cccc[n+]2CC(=O)N1c1c(C)cccc1C (stereo not given) | -20

The list continues:
SMILES | Beta apoptosis | Calb FLC | LANA-H2B inh | RanGTP-Impb inh | B2AR ag | UCH37 inh | Bfl-1 A1 inh | T cruzi inh
COc1ccc(/C=N/NC(=O)c2cccnc2)cc1CN1CCc2cc(OC)c(OC)cc2C1C (stereo not given) | 4 | 8 | 4.9 | 3.3 | -5 | nt | -0.2 | 4
COc1cccc(CNC(=O)C2CCN(S(=O)(=O)c3ccc(C)cc3)CC2)c1 | -14 | 3 | 1.0 | 1.7 | 4 | -0.8 | -0.3 | -3
Cc1cccc(N(C(=O)c2ccc(CN3CCOCC3)o2)C(C(=O)NC2CCCCC2)c2ccc(F)cc2)c1 (stereo not given) | -1 | -1 | 2.3 | -2.0 | 0 | 0.8 | 0.8 | -4
C=CCNC(=S)N1CCN(CCN=Cc2c(C)[nH]n(-c3ccc([N+](=O)[O-])cc3)c2=O)CC1 | nt | -7 | 2.3 | ? | -7 | 6.8 | -9.1 | 0
O=C(CNS(=O)(=O)c1cccc(Br)c1)NCC1CCCCC1 | -2 | 21 | 2.5 | 7.8 | -9 | -0.5 | -0.3 | -10
O=C(N/N=C/c1sc(=O)n(Cc2ccc(Br)cc2)c1Cl)c1ccco1 | 42 | 66 | -2.0 | 0.0 | 3 | nt | -1.5 | -4
Cc1cc(=O)[nH]c(NCCO)n1 | 7 | -5 | 0.6 | -4.4 | 2 | nt | 0.7 | -16

Marked active in RanGTP-Impb inh, among the entries above:
SMILES,LANA-H2B inh,RanGTP-Impb inh,B2AR ag,UCH37 inh
COc1ccccc1C(=O)NC(=S)Nc1ccc(N2CCCC2)cc1,-0.3,20*,-1,3.4
